MbtI inh: MbtI salicylate synthase inhibitors, primary screen, biochemical, fluorescence intensity; 100,000 compounds, 0.89% hits; purified MbtI enzyme, fluorescence intensity read-out; P9WFX0; inhibition, %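 (about 17 µg/mL by stock and volumes)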;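 active = above 50% in both replicates, above 80% if mildly self-fluorescent; inactive = the rest, strongly fluorescent compounds included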;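 also: 0% = mean of negative and 100% = mean of positive controls; one replicate is shown; some compounds called inactive have numbers as strong as hits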
Target sequence (P9WFX0 whole entry, looked up): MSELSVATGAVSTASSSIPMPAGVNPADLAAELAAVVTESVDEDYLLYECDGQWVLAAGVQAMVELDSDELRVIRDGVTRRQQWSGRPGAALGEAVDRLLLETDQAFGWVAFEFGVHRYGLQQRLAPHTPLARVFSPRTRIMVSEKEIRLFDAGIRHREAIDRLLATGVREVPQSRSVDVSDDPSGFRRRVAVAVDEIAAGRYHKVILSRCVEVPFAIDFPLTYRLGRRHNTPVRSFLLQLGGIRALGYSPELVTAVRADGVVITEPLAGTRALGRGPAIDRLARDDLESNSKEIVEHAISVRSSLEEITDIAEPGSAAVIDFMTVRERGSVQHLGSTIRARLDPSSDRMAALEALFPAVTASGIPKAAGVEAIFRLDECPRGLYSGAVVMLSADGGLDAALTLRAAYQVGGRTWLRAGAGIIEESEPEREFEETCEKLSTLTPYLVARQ
Polio RdRp inh: poliovirus RdRp elongation inhibitors, primary screen, biochemical, fluorescence polarization, total intensity; 150,000 compounds, 0.66% hits; poliovirus polymerase elongation; stronger effect = lower value; AID 588519, 2011; Genome polyprotein (Poliovirus type 1 (strain Mahoney)), P03300; % elongation, % (compound at 16.7 µg/mL); in the data active = % elongation below about 90%; also: some results filed as inactive read as strong as hits
MenB inh: M. tuberculosis MenB inhibitors, primary screen, biochemical, absorbance; 1,4-dihydroxy-2-naphthoyl-CoA synthase (Mycobacterium tuberculosis (strain ATCC 25618 / …; MenB enzyme assay, absorbance read-out; some hits fall short of the stated cut; inhibition, %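 (about 12 µg/mL by stock and volumes)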; 100,000 compounds, 0.43% hits; AID 540299, 2011;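 active = mean of two replicates above 30%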;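 also: 0% = no compound and 100% = wells with inactive enzyme; the first replicate is given; strong numbers were not always called active; inactives centre near -10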
Target sequence (P9WNP5 whole entry, looked up): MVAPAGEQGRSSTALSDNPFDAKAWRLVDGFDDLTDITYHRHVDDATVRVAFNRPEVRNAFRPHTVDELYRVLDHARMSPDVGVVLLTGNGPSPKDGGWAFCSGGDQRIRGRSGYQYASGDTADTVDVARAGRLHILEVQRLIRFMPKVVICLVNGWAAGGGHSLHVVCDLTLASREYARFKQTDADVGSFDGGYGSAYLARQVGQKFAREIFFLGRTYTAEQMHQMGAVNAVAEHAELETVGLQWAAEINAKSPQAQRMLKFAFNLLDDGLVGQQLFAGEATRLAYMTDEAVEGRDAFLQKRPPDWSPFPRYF
Polio RdRp inh intensity: second read-out of Polio RdRp inh, no call of its own (marks repeat the call); % elongation; measured here: total intensity read-out; formula for this scale not given here;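 total fluorescence in place of polarization; lower means less elongation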
* marks the source's active call; other numbers are inactive results; nt = not tested or not shown.

Sample of the layout, 3 compounds:
1	CCN(CC)C1=NC(=O)C(CC(=O)Nc2cccc(C(=O)OCC(=O)N(C)C3(C#N)CCCCC3)c2)S1 (stereo not given)
2	C/C(COc1ccccc1O)=N\NC(N)=O
3	CC(C)(C)C(=O)Nc1ccc(C(=O)Oc2ccccc2)c(O)c1

assay / compound	1	2	3
MbtI inh	2	-8	-52
Polio RdRp inh	103	104	nt
Polio RdRp inh intensity	106	106	nt
MenB inh	-16	1	-9

The whole of this part, repeating the preview:
1	CCN(CC)C1=NC(=O)C(CC(=O)Nc2cccc(C(=O)OCC(=O)N(C)C3(C#N)CCCCC3)c2)S1 (stereo not given)
2	C/C(COc1ccccc1O)=N\NC(N)=O
3	CC(C)(C)C(=O)Nc1ccc(C(=O)Oc2ccccc2)c(O)c1
4	CCN(CC)C(=S)Oc1ccc(C(=O)Nc2cccc3ccccc23)cc1
5	CCOC(=O)/C=C1\NC(=O)C(C)S1 (stereo not given)
6	CCCN(CCC)c1cccc(C(=O)O)n1

assay / compound	1	2	3	4	5	6
MbtI inh	2	-8	-52	nt	21	5
Polio RdRp inh	103	104	nt	100	102	104
Polio RdRp inh intensity	106	106	nt	102	98	99
MenB inh	-16	1	-9	-44	nt	nt

7	CCOc1ccc(Nc2nc(O)c(N=Nc3ccc(C(=O)O)cc3)s2)cc1
8	c1ccc(-n2c(SCc3nc4ccccc4o3)nnc2C2CC2)cc1
9	CN(c1ccnc(C(=O)NC2CCCC2)c1)S(=O)(=O)c1ccccc1
10	CN=C1S/C(=C\c2cn(CC(=O)NCc3ccco3)c3ccccc23)C(=O)N1C
11	Oc1c(C(c2ccccn2)N2CCN(c3ccccn3)CC2)ccc2cccnc12 (stereo not given)
12	CCc1nn2cc(-c3ccc(C)cc3)nc2s1

assay / compound	7	8	9	10	11	12
MbtI inh	32	-10	-25	6	-3	-8
Polio RdRp inh	108	99	106	101	144	103
Polio RdRp inh intensity	105	107	107	104	162	102
MenB inh	-120	-26	-20	-102	-102	-6

13	NN1C(=O)/C(=C/c2cccs2)SC1=S
14	Cc1cc(Br)c(NC(=S)NC(=O)C(C)(C)C)c(Br)c1
15	CC(=O)Nc1ccc(N=Cc2ccc(C)cc2)cc1
16	O=C1CSc2ccc(C(=O)N3CCN(S(=O)(=O)c4ccc5c(c4)CCC5)CC3)cc2N1
17	CC1(C)CC(=O)C2=C(C1)N(Cc1ccccc1)C(N)=C(C#N)C21CCOCC1
18	C=C(C)[C@@H]1Cc2cc3ccc(=O)oc3cc2O1

assay / compound	13	14	15	16	17	18
MbtI inh	5	-9	-1	18	nt	115
Polio RdRp inh	100	109	102	104	107	100
Polio RdRp inh intensity	105	98	108	102	167	104
MenB inh	-88	-7	-11	0	-25	0

One compound at a time, from the list above:
CC1(C)CC(=O)C2=C(C1)N(Cc1ccccc1)C(N)=C(C#N)C21CCOCC1 across the screens: MbtI inh = nt; Polio RdRp inh = 107; Polio RdRp inh intensity = 167; MenB inh = -25
O=C1CSc2ccc(C(=O)N3CCN(S(=O)(=O)c4ccc5c(c4)CCC5)CC3)cc2N1 across the screens: MbtI inh = 18; Polio RdRp inh = 104; Polio RdRp inh intensity = 102; MenB inh = 0
NN1C(=O)/C(=C/c2cccs2)SC1=S across the screens: MbtI inh = 5; Polio RdRp inh = 100; Polio RdRp inh intensity = 105; MenB inh = -88

(list continues)
19	CCCNCc1cc(OCC)c(OCC(N)=O)cc1Br
20	Cc1ccc(Nc2nc(N)nc(CSc3nnc4n3CCCCC4)n2)cc1
21	O=C(c1ccco1)N1CCc2sccc2C1c1ccc(OC(F)(F)F)cc1 (stereo not given)
22	COc1cc(/C=C2/C(=O)ON=C2c2ccccc2)ccc1O
23	Cn1c(=O)c(=O)n(C)c2cc(S(=O)(=O)N3CCCC3C(=O)NCc3cccs3)ccc21 (stereo not given)
24	Cc1ccccc1C1NC(c2ccccc2C)C(C)C(=O)C1C (stereo not given)

assay / compound	19	20	21	22	23	24
MbtI inh	3	1	-13	41	2	-10
Polio RdRp inh	100	102	105	99	102	105
Polio RdRp inh intensity	100	93	114	100	102	104
MenB inh	-4	-10	-23	-31	-4	-27

25	COC(OC)(OC)c1cc2ccccc2c(=O)[nH]1
26	O=C(CC1N=C2c3ccccc3N=C(SCc3ccc(F)cc3)N2C1=O)NCc1ccco1 (stereo not given)
27	Cc1cc(-n2c(C)cc(C(=O)COC(=O)c3ccc(C)c(NC(=O)c4ccco4)c3)c2C)no1
28	O=C(CCN1C(=O)NC2(CCCC2)C1=O)Nc1nc2ccccc2[nH]1
29	O=C(CCC1COc2ccccc2O1)N1CCN(Cc2ccccc2)CC1 (stereo not given)
30	COCCOC(=O)c1c(C)oc2cc(Br)c(OC(C)C(=O)OC)cc12 (stereo not given)

assay / compound	25	26	27	28	29	30
MbtI inh	34	-2	7	12	-12	-7
Polio RdRp inh	104	100	103	101	105	102
Polio RdRp inh intensity	106	99	102	110	101	104
MenB inh	6	-10	-29	-11	-20	2

31	COc1ccc(C(=O)NC23CC4CC(CC(C4)C2)C3)cc1
32	O=C(CSc1nc(-c2ccccc2)cs1)Nc1ccnn1C1CCCC1
33	O=S(=O)(c1ccccc1)N1CCNCC1
34	O=C(O)c1cccc(N2C(=O)CSC2c2ccccc2)c1 (stereo not given)
35	C=CCOc1ccc(/C(O)=C2/C(=O)C(=O)N(CC3CCCO3)C23C(=O)N(C)c2ccccc23)cc1 (stereo not given)
36	O=c1c(=O)n(-c2ccccc2)ccn1Cc1ccccc1

assay / compound	31	32	33	34	35	36
MbtI inh	-2	-5	-5	-6	5	2
Polio RdRp inh	103	101	102	98	103	104
Polio RdRp inh intensity	108	106	107	103	106	102
MenB inh	-57	-12	nt	-8	-18	-22

37	Nc1nnc(SCc2ccccc2)s1
38	CCN1C[C@@]2(COC)C3[C@@H](OC)[C@H]4[C@@H]1[C@@]3(C1C[C@@]3(O)[C@H](OC(=O)c5ccccc5)C1[C@]4(OC(C)=O)[C@@H](O)[C@H]3OC)[C@@H](OC)C[C@H]2O (stereo not given in full)
39	CCOC(=O)[C@@H]1CSC(c2ccc(OC)c(OC)c2)N1 (stereo not given in full)
40	C=CCNC(=O)c1cccc2c1-c1ccccc1C2=O
41	Clc1ccc(-c2nc(-c3ccccc3)no2)cc1
42	O=C(CSc1nc2ccccc2n1-c1ccccc1)c1ccc[nH]1

assay / compound	37	38	39	40	41	42
MbtI inh	39	-9	nt	4	-21	11
Polio RdRp inh	103	97	104	105	101	101
Polio RdRp inh intensity	100	101	103	101	101	99
MenB inh	-28	1	-17	-3	4	-54

43	CCn1cc(/C=N/O)c(C)n1
44	Cc1cc(C)n(CCCN)n1
45	O=C(O)c1ccccc1S(=O)c1ccc(Cl)cc1 (stereo not given)
46	O=C(OC[C@@H]1CCCN2CCCCC12)c1ccccc1 (stereo not given in full)
47	COC(=O)c1cc2sc(Cl)cc2n1CC(=O)Nc1ccc(C)c(C)c1
48	O=c1oc2ccccc2n1CCn1c2ccccc2c2nc3ccccc3nc21

assay / compound	43	44	45	46	47	48
MbtI inh	10	-3	-4	nt	2	-9
Polio RdRp inh	101	101	100	104	102	101
Polio RdRp inh intensity	102	103	104	109	99	101
MenB inh	15	5	-11	-9	10	3

Laid out differently: results already given
No.	structure	MbtI inh	Polio RdRp inh	Polio RdRp inh intensity	MenB inh
44	Cc1cc(C)n(CCCN)n1	-3	101	103	5
45	O=C(O)c1ccccc1S(=O)c1ccc(Cl)cc1 (stereo not given)	-4	100	104	-11

(continued)
49	N#Cc1nc(-c2ccccc2)oc1NCCCN1CCOCC1
50	CCOC(=O)C1=C(N)c2ccccc2CC12CCCCC2
51	CC(C)n1ncc2cc(N)cnc21
52	COCC(C)n1c(C)cc(C(=O)CSc2ncccn2)c1C (stereo not given)
53	CC1(C)CC(=O)C2=C(C1)N(c1c(F)cccc1F)C(N)=C(C#N)C2c1ccsc1 (stereo not given)
54	CCS(=O)(=O)Nc1ccc(C2=NN(S(=O)(=O)CC)C(c3ccccc3)C2)cc1 (stereo not given)

assay / compound	49	50	51	52	53	54
MbtI inh	nt	nt	105	22	nt	108
Polio RdRp inh	99	102	101	106	110	119
Polio RdRp inh intensity	103	112	105	100	110	135
MenB inh	2	-14	5	-2	-19	-24

55	CCOC(=O)C1CCN(c2nnnn2-c2ccccc2)CC1
56	S=c1[nH]nc(Cn2nnc3ccccc32)o1
57	CSc1c(-c2ccc(Cl)cc2)[nH]c2ccccc12
58	O=C1c2ccccc2C(=O)N1CC(O)CN1CCOCC1 (stereo not given)
59	Cc1ccc(S(=O)(=O)N2CCN(C(=O)COC(=O)c3ccc(O)cc3)CC2)cc1
60	O=c1cc(CSc2nnc(-c3ccccc3)n2Cc2ccc3c(c2)OCO3)nc2sccn12

assay / compound	55	56	57	58	59	60
MbtI inh	-3	2	92	-17	-1	-2
Polio RdRp inh	98	101	101	104	105	104
Polio RdRp inh intensity	91	100	110	102	108	113
MenB inh	-13	-4	6	-11	4	-7

61	CN(C)/C=N/c1c(C#N)cnn1-c1ccccc1
62	Cc1ccccc1Nc1nnc(SCC(=O)NC(C)(C#N)C(C)C)s1 (stereo not given)
63	CC1(C)CC(=O)C2=C(C1)Oc1ccccc1C2CC(=O)c1cccs1 (stereo not given)
64	Cc1cc(C)n(-c2ccc(C(=O)NCCc3c[nH]c4ccccc34)cc2)n1
65	CC1(C)C(=O)Nc2ccccc2N1C(=O)COC(=O)c1ccccn1
66	CNC1CCC(C)CC1 (stereo not given)

assay / compound	61	62	63	64	65	66
MbtI inh	6	11	1	-9	7	-12
Polio RdRp inh	101	114	103	100	99	108
Polio RdRp inh intensity	98	116	104	100	104	114
MenB inh	-25	-18	-9	nt	15	-25

67	Cc1nc(CSCC(=O)O)cs1
68	CC(=O)Nc1ccc(S(=O)(=O)N(C2=NCC(C)S2)c2ccccc2)cc1 (stereo not given)
69	Nc1nnc(SCC(=O)c2cccs2)s1
70	COC(=O)c1ccc(CN2C(=O)NC(Cc3ccccc3)(Cc3ccccc3)C2=O)o1
71	CCN1CCCC1CNC(=O)c1nn(C)c2c1CSc1ccccc1-2 (stereo not given)
72	C=CCOC(=O)C1CC=CCC1C(=O)Oc1ccc(F)cc1F (stereo not given)

assay / compound	67	68	69	70	71	72
MbtI inh	-6	2	26	-3	1	-15
Polio RdRp inh	92	96	112	103	100	100
Polio RdRp inh intensity	85	98	135	104	102	102
MenB inh	-8	-22	20	-13	11	-10

73	CCOC(=O)c1cc(NC(=O)Nc2ccc(C)cc2C)c(C)nc1C
74	CCC1CCCCN1S(=O)(=O)c1ccc2c(c1)CCN2C(C)=O (stereo not given)
75	CC1(C)COC(Nc2ccc(Cl)c(Cl)c2)=N1
76	Nc1nc(N2CCOCC2)ncc1S(=O)(=O)c1ccc(C(F)(F)F)cn1
77	CCC(=O)c1ccc(OCC(=O)NC2CCCC2)cc1
78	CCOC(=O)N1CCC(=C(C#N)C(=O)Nc2cc(OC)ccc2OC)CC1

assay / compound	73	74	75	76	77	78
MbtI inh	1	-4	-10	4	-2	15
Polio RdRp inh	100	103	104	106	97	99
Polio RdRp inh intensity	106	100	107	106	109	106
MenB inh	-9	-7	nt	-18	12	-15

79	N/N=C1\CCCc2c1[nH]c1ccc(F)cc21
80	Cc1ccsc1/C=N/n1cnc2sc(C)c(C)c2c1=O
81	CN(C)C1c2cccc3cccc(c23)C1NS(C)(=O)=O (stereo not given)
82	N#CC(C#N)=Cc1ccc(N2CCCC2)cc1
83	Cc1ccc(C(CCN)c2ccco2)cc1 (stereo not given)
84	Cc1cc(S(=O)(=O)N2CCOCC2)ccc1OCC(=O)N1CCOCC1
85	O=C(CCNc1ccc(Cl)c(C(F)(F)F)c1)c1ccccc1
86	CCS(=O)(=O)N1CCC(C(=O)N2CCN(c3ccccc3)CC2)CC1

assay / compound	79	80	81	82	83	84	85	86
MbtI inh	36	1	-13	6	5	-7	nt	-19
Polio RdRp inh	99	112	99	76	101	103	106	99
Polio RdRp inh intensity	100	114	104	165	106	107	101	105
MenB inh	-5	-19	5	-90	15	-70	-32	-15

Screens as filed in PubChem BioAssay.
